Source: PubChem BioAssay
D2 ag: Beta-Arrestin HTS for Positive Allosteric Modulators of the Human D2 Dopamine Receptor: Agonists; D(2) dopamine receptor (Homo sapiens), P14416; DiscoveRx PathHunter D2 beta-arrestin, luminescence, 90 min; 100% = 57 uM dopamine signal; activation, % (no concentration beside the values); 360,000 compounds, 0.084% hits; in the data active = activation above about 40%; inconclusive = about 15% to 40%; inactive = below about 15%; note: compound concentration not given in the record; the text of the record calls up to 30% inactive
Target sequence (P14416 whole entry, looked up): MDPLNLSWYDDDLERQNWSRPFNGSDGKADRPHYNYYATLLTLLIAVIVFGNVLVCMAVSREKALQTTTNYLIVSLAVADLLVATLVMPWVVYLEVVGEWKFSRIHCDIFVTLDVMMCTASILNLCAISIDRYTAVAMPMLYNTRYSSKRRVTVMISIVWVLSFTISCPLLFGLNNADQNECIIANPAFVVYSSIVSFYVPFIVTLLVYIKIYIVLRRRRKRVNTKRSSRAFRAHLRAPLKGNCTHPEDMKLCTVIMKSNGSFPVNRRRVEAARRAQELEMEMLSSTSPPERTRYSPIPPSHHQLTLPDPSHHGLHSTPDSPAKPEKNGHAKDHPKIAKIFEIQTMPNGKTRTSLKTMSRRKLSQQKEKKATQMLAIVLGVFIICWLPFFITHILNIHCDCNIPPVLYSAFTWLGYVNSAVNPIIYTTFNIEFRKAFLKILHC
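DiscoveRx PathHunter D2 beta-arrestin cells (2,100/well) attached overnight, then compound-stimulated 90 min at 37 C in HBSS/10 mM HEPES/0.1% Tween-20 buffer; beta-galactosidase complementation read by luminescence after 1 h at ambient temperature. Dopamine 57 uM final (EC100) as control.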
D2 PAM: Beta-Arrestin HTS for Positive Allosteric Modulators of the Human D2 Dopamine Receptor: Potentiators. 360,000 compounds, 0.23% hits. potentiation, % (no concentration beside the values). DiscoveRx D2 beta-arrestin cells, luminescence, 90 min; 100% = 57 uM dopamine signal. D(2) dopamine receptor (Homo sapiens), P14416; active = potentiation of 50% or more; inconclusive = 30% to 50%; inactive = 30% or less;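 note: compound concentration not given in the record; tested on top of an EC20 dose of dopamine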
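PathHunter beta-arrestin assay in DiscoveRx D2 cells. Compounds were added with an EC20 of dopamine (50 nM final) for 90 min at 37 deg C. Luminescence was read 1 h after detection reagent, with 57 uM dopamine as the EC100 control.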
TRPML1 inh: qHTS for Inhibitors of the Human Mucolipin Transient Receptor Potential 1 (TRPML1); Mucolipin-1 (Homo sapiens), Q9GZU1; TRPML1-inducible cells, Ca2+ dye fluorescence, FDSS; hits give low values; inhibition of EC80 agonist-evoked calcium signal; activity change, negative = inhibition, % (concentration not given with the values); 390,000 compounds, 0.02% hits; in the data active means activity change below about -50%; inconclusive means about -30% to -50%; inactive means above about -30%;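 note: stimulus is agonist 54-4 at its EC80 concentration; % is set by controls: 0 for no effect and ±100 for the full control effect; the text of the record puts the active cut at -80%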
Target sequence (Q9GZU1 whole entry, looked up): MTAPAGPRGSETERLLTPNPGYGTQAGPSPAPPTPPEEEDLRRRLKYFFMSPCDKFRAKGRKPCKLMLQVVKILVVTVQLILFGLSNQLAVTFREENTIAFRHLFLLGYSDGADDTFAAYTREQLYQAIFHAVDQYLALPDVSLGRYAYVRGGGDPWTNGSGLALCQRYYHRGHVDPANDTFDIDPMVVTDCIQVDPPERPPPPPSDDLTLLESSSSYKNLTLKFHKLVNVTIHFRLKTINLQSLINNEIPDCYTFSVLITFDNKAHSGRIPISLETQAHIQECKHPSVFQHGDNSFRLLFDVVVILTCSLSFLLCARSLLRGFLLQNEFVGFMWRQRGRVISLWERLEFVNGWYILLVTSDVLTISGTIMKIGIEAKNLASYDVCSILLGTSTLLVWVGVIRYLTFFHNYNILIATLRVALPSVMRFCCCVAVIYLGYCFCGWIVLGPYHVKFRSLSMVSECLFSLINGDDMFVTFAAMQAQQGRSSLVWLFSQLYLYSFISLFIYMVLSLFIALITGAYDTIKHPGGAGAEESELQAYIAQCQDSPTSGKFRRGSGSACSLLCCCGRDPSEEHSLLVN
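TRPML1-DL cells, Tet-induced overnight (~16 h, 37 °C) at 1,500 cells/well, were loaded with Ca8 no-wash dye plus quencher for 45-90 min at room temperature. Compounds were pinned during FDSS kinetic reading; agonist 54-4 at EC80 (4 uM final) then added.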
Six1-Eya2 blk: qHTS Assay for Inhibitors of the Six1/Eya2 Interaction | AlphaScreen GST-Six1/His-Eya2 binding, biochemical; hits give low values; control for the full effect not named in the record | activity change, % (test concentration not listed) | 360,000 compounds, 0.56% hits | AID 651725, 2012; in the data active = activity change below about -65%; inconclusive = about -30% to -65%; inactive = above about -30%; note: % is set by controls: 0 for no effect and ±100 for the full control effect
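AlphaScreen luminescence read after one hour at 37 °C in darkness. Pin-transferred compounds met GST-Six1 and His-Eya2 protein (5X stock 250 nM/500 nM) plus glutathione donor and Ni-chelate acceptor beads (5X, 50 ug/mL).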
PINK1 expr mod: A Quantitative High throughput Screen to Identify Chemical Modulators of PINK1 Expression. PINK1 immunofluorescence, high-content cytometry, 24 h. 410,000 compounds, 0.2% hits. Potency, µM (top dose mostly 76.6 µM), without a hit: at the highest dose activation (PINK1 increase), most hits filed as activators. AID 624263, 2012; active = well fitted activation curve with a large enough effect; inconclusive = small, poorly fitted or top-dose-only effect; inactive = flat fitted curve, though single readings scatter; cell line not stated here;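 note: potency is the fitted concentration of half-maximal effect; % of control where 0% means no effect; nearly all actives have a fitted effect of over 65% in size; a mitochondrial uncoupler was the plate control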
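Fluorescence from anti-PINK1 antibody, together with nuclear and cell stains, was scanned on a laser-scanning cytometer. Before staining, stable-line cells were incubated 24 hours with compounds at 5 concentrations; primary antibody 12 h at 10 degrees C.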
TRPML1 ag: qHTS for Agonists of the Human Mucolipin Transient Receptor Potential 1 (TRPML1); TRPML1-expressing cells, Ca2+ dye fluorescence, FDSS; host cell line not named in the record; reference of the full effect not given here; activation, % (test concentration not listed); 410,000 compounds, 0.12% hits; in the data active = activation above about 50%; inconclusive = about 30% to 50%; inactive = below about 30%; note: 0% is about no effect; the text of the record puts the active cut at 80%
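Kinetic FDSS Ca2+ read in Tet-induced TRPML1-DL cells (ABD Ca8 dye plus quencher, 45-90 min RT loading): baseline, then compound, then 110 s agonist window; EC80 agonist 54-4 at 4uM final added afterwards for a 110 s antagonist window.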
An asterisk follows results filed as active; ? = inconclusive; · = no result given; & = joins results of further samples; [ ] = remark or other dose. An unsorted share of the library. Share with any hit: about 1%.

no.	compound	D2 ag	D2 PAM	TRPML1 inh
1	COc1ccc(-c2onc3ccc(Cl)cc23)cc1	13	104*	1
2	Cc1ccc(OCc2cc(C(=O)N3CCc4sccc4C3)no2)cc1C	-5.7	-8	-5
3	CN(C)C(CNC(=O)c1cc(S(=O)(=O)N2CCOCC2)ccc1F)c1cccs1 (stereo unspecified)	-2.7	-13	1
4	O=C(COC(=O)c1cc2ccccc2oc1=O)Nc1cccc(Br)c1	6.9	-8	-2
5	C[C@H]1CCCCO[C@H](CN(C)C(=O)Nc2ccc(F)cc2)[C@@H](C)CN([C@@H](C)CO)C(=O)c2cc(NC(=O)Nc3ccc4c(c3)OCO4)ccc2O1	3.5	6	-5
6	COc1ccc(CN(C)C(=O)c2ccc(NC(=O)CC3SC(N4CCCC4)=NC3=O)cc2)c(OC)c1 (stereo unspecified)	-2.6	2	0
7	Cc1nc2c(C(F)(F)F)cccc2c2c1CCS2	0.1	-5	9
8	CC(C)C[C@@H](CO)N(Cc1ccccc1)S(=O)(=O)N(Cc1ccccc1)[C@H](CO)CC(C)C	0.2	-12	22
9	COC(=O)[C@]12CCCCC=C1N(CCC1=CCCCC1)C(=O)[C@H](CC(=O)NCc1ccccc1)C2	·	·	·
10	COc1ccc(OC)c(/C=N/N(CCC#N)C2=NS(=O)(=O)c3ccccc32)c1	-3.0	-5	-14
11	CC(C)C[C@@]12C(=O)N(c3cccc(Cl)c3)C(=O)N1[C@H](c1ccc(Br)cc1)[C@@H]1C(=O)N(C(C)(C)C)C(=O)[C@@H]12	-6.9	-7	-15
12	Cc1ccc(S(=O)(=O)N2[C@@H](c3ccc(F)cc3)C(C(=O)O)=CC[C@H]2c2cccc(C)c2)cc1	-4.2	-4	-11

no.	Six1-Eya2 blk	PINK1 expr mod	TRPML1 ag
1	8	2.1%	0.9
2	12	1.4%	2.5
3	-4	3.5%	-0.9
4	10	3.3%	0.4
5	-20	1.3%	-0.6
6	-2	-0.5%	1.7
7	-5	2.2%	0.4
8	3	-1.7%	3.2&0.3
9	-4	1.9%	0.6
10	-3	1.4%	-0.1
11	-1	2.2%	-0.1
12	5	-0.9%	2.1

(list continues)
no.	compound	D2 ag	D2 PAM	TRPML1 inh
13	CCO[C@H]1OC(C(=O)NCc2nc3ccccc3[nH]2)=C[C@@H](c2ccccc2)[C@@H]1CCCO	1.0	3	11
14	O=C(N/N=C/c1cccc(Oc2ccccc2)c1)c1ccncc1	-1.6	2	1
15	Cc1ccc(S(=O)(=O)NC(CC(N)=O)C(=O)O)cc1 (stereo unspecified)	-1.4	-5	12
16	Cc1ccc(Nc2ncnc3onc(C)c23)cc1Cl	·	·	-15
17	CCOCCCNC(=O)C(c1ccc(C)cc1)N(Cc1cccs1)C(=O)c1ccccc1O (stereo unspecified)	0.7	0	25
18	CS(=O)(=O)N1CCCCC1c1cc(C(=O)NCc2ccc(F)cc2)no1 (stereo unspecified)	-4.8	-5	·
19	CCc1nc2c(OCc3cccc(Cl)c3)cccn2c1N(C)C(C)=O	-5.9	-7	·
20	O=C(CN1C(=O)CCS(=O)(=O)c2ccccc21)Nc1ccc(Cl)cc1	-0.2	-11	-2
21	O=C(c1ccco1)N1CCN(C(=O)N2CCCCC2)CC1	-6.7	-3	-4
22	Cc1cccc(N2CCN(c3cc(C)nc4nnnn34)CC2C)c1 (stereo unspecified)	1.7	1	-5
23	Cc1nn(CC(=O)NC2CCC(C)CC2)c(=O)c2c1sc1ccccc12 (stereo unspecified)	·	·	1
24	COC(=O)CNc1nc(Cl)nc(Nc2ccc(C)cc2)n1	0.1	1	12

no.	Six1-Eya2 blk	PINK1 expr mod	TRPML1 ag
13	3	2.7%	-1.3
14	-2	-0.9%	0.7
15	0	-2.1%	-0.8
16	·	-0.1%	1.6
17	0	-0.3%	0.2
18	1	1.0%	-0.4
19	0	0.7%	-0.1
20	2	-0.6%	-0.2
21	-3	1.2%	-0.4
22	2	1.9%	0.6
23	·	0.8%	0.2
24	16	-0.6%	2.0

A draw from above in order of formula weight, smallest number first:
no.	compound	D2 ag	D2 PAM	TRPML1 inh
22	Cc1cccc(N2CCN(c3cc(C)nc4nnnn34)CC2C)c1 (stereo unspecified)	1.7	1	-5
23	Cc1nn(CC(=O)NC2CCC(C)CC2)c(=O)c2c1sc1ccccc12 (stereo unspecified)	·	·	1
20	O=C(CN1C(=O)CCS(=O)(=O)c2ccccc21)Nc1ccc(Cl)cc1	-0.2	-11	-2

no.	Six1-Eya2 blk	PINK1 expr mod	TRPML1 ag
22	2	1.9%	0.6
23	·	0.8%	0.2
20	2	-0.6%	-0.2

Continuation:
no.	compound	D2 ag	D2 PAM	TRPML1 inh
25	CCOC(=O)C1C(=O)NC(c2ccccc2)=NC1c1ccc(F)cc1 (stereo unspecified)	-2.2	-8	2
26	COc1ccc(CCC(=O)N2CCN(c3cccc(C)c3C)CC2)cc1	2.3	-5	3
27	O=C(C1CCN(S(=O)(=O)N2CCOCC2)CC1)N1CCc2ccccc21	-4.6	-14	-3
28	COC(=O)c1nn(-c2cccc(C(F)(F)F)c2)c(=O)cc1Sc1ccccn1	-2.9	-15	29
29	Fc1ccc(CNC(=S)NC2CCCCC2)cc1	-1.2	-9	7
30	O=C(COc1ccccc1)NCC(c1ccc(Cl)cc1)N1CCCCC1 (stereo unspecified)	·	·	7
31	Cn1c(NCc2ccccc2F)nc2cc(-c3cccc(Cl)c3)sc2c1=O	-2.8	-9	·
32	O=C(C1CC1)N(CCc1ccccc1)Cc1nc2ccccc2c(=O)[nH]1	-3.8	?	-8
33	Cc1cc(NC(=O)CSc2nc3ccccc3cc2C#N)no1	-1.7	1	2
34	CCCCCCCOC(=O)C[N+](C)(C)CCOC1CC2CCC1(C)C2(C)C (stereo unspecified)	-9.0	-22	55
35	Cc1ccc(CNC(=O)CCC(=O)Nc2nnc(C)s2)cc1	-3.6	-12	5
36	COc1ccc(-c2cc(-c3ccccc3)c(C#N)c(SCC(=O)O)n2)cc1	-2.8	-1	-4

no.	Six1-Eya2 blk	PINK1 expr mod	TRPML1 ag
25	6	1.1%	-0.6
26	-1	2.4%	0.9
27	-2	-2.8%	-1.3
28	-1	?	1.2
29	-3	1.6%	0.9
30	·	0.4%	-0.3
31	11	3.2%	-0.5
32	0	1.2%	-0.3
33	-4	9.7%	1.1
34	-6	-3.7%	27
35	5	0.7%	0.6
36	-19	-2.0%	1.9

The list continues.
no.	compound	D2 ag	D2 PAM	TRPML1 inh
37	CN(C)CCNC(=O)/C(=C/c1cccc([N+](=O)[O-])c1)NC(=O)c1ccccc1	-2.5	-2	?
38	C/C(=N\NC(=O)c1ccoc1C)c1cccc2ccccc12	2.7	-2	5
39	Cc1cccc(NC(=O)c2ccc(S(=O)(=O)NCc3ccco3)cc2)n1	9.2	-1	-2
40	CCOC(=O)N1CCN(C(=O)COc2ccc(S(=O)(=O)NCc3ccccc3)cc2)CC1	4.2	-1	-18
41	CCCNC(=S)NC1CC2CCC(C1)N2Cc1ccccc1 (stereo unspecified)	-0.1	-18	5
42	COc1ccc(CCn2c(C)cc(C(=O)CSc3nnnn3-c3ccccc3)c2C)cc1	-2.8	-4	11
43	CCOC(=O)C1CCN(c2cc3c(cc2NC(=O)c2ccc(F)cc2)n(C)c(=O)n3C)CC1	-0.8	-10	27
44	Cc1cc(C)c2nc(NC(=O)C3CCCO3)sc2c1 (stereo unspecified)	-1.5	-1	9
45	Cc1nc(NCCN2CCOCC2)c2oc3ccccc3c2n1	-4.5	-8	8
46	CC1CCCN(C(=O)C2CCN(S(=O)(=O)c3ccc4c(c3)CC(C)N4C(=O)C3CC3)CC2)C1 (stereo unspecified)	-3.2	-1	5
47	O=C(N/N=C(\Cc1ncc[nH]1)c1ccccc1)c1ccncc1	-0.4	2	-3
48	CCC(CC)c1nnc(NC(=O)c2ccc(S(=O)(=O)N3CCc4ccccc4C3)cc2)s1	-2.0	-4	-6

no.	Six1-Eya2 blk	PINK1 expr mod	TRPML1 ag
37	8	-2.1%	0.3
38	-9	1.2%	-0.3
39	-4	3.3%	4.4
40	-1	·	0.3
41	-1	7.8%[38.3 µM]	0.1
42	1	7.1%	-0.2
43	1	1.8%	-1.0
44	-2	3.7%	1.1
45	-3	-0.6%	3.7
46	-3	0.1%	1.6
47	-82*	-1.7%	-0.5
48	6	4.8%	0.6

Next section:
no.	compound	D2 ag	D2 PAM	TRPML1 inh
49	CCOc1ccccc1NS(=O)(=O)c1c(C)nc2sccn2c1=O	·	·	9
50	O=C1NN(c2ccccc2)C(=O)/C1=C\c1cccn1-c1ccc(Cl)c([N+](=O)[O-])c1	-3.1	3	1
51	COc1cc(C(=O)O/N=C(\N)c2cccc([N+](=O)[O-])c2)cc(OC)c1OC	?	55*	0
52	Cc1nnc(SCC(=O)Nc2ccc(S(=O)(=O)N3CCCC3)cc2)n1N	0.4	4	5
53	CCOC(=O)N1CCC(n2c(SCC(=O)NCc3ccccc3)nc3ccccc3c2=O)CC1	-0.6	3	-6
54	CN(C)C(CNC(=O)c1ccc(NC(=O)c2cccs2)cc1)c1ccccc1 (stereo unspecified)	1.3	-10	-24
55	COc1ccc(C(=O)NCc2nnc(SCC(=O)c3ccc(F)cc3)n2C)cc1OC	-7.1	-4	-8
56	COc1ccc([C@H]2CC(=O)C=C(c3ccc(F)nc3)C2)cc1OC	0.7	2	-5
57	CCOc1cc(C2Sc3ccccc3NC3=C2C(=O)c2ccccc23)ccc1O (stereo unspecified)	·	·	-14
58	CCOc1ccc(NC(=O)c2ccc(NC(=O)c3ccc(NC(N)=O)cc3)cc2)cc1	-2.4	-3	15
59	CC1CCCC(C)N1C(=O)Cn1cc(/C=C2/C(=O)Nc3ccccc32)c2ccccc21 (stereo unspecified)	-7.8	-8	18

no.	Six1-Eya2 blk	PINK1 expr mod	TRPML1 ag
49	·	0.0%	-0.9
50	-2	-0.8%	-0.6
51	-12	5.4%	-0.4
52	1	3.5%	-0.5
53	-1	1.0%	-0.5
54	-23	-0.9%	0.8
55	-17	0.4%	0.2
56	1	-0.3%	0.5
57	·	-1.0%	-0.3
58	-9	3.7%	0.7
59	-20	1.2%	3.6
